Screening data as filed in PubChem BioAssay.
NS1 inh: qHTS Assay for Inhibitors of Influenza NS1 Protein Function | Potency, µM (top dose mostly 46.1 µM), inactives show at the highest dose activity, positive = more growth | 0.4% of 270,000 active | S. cerevisiae slowed by influenza A NS1, growth recovery by OD600 | AID 2326, 2010; active means well fitted rising curve with a large enough effect; inconclusive means small, poorly fitted or top-dose-only effect; inactive means no such curve, though single readings can be large or run the other way; note: nearly all actives have a fitted effect of over 50% in size
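A cell-based growth assay was used: compounds that relieve NS1-induced slow growth of budding yeast raise OD600. Assay medium was yeast nitrogen base with ammonium sulphate and -URA supplement, pH 6.0, with 2% galactose.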
LASV entry inh: qHTS for Inhibitors of binding or entry into cells for Lassa Virus | Lassa virus pseudotype entry inhibition, cell reporter; control for the full effect not named in the record | Potency, µM (top dose mostly 37.9 µM), inactives show at the highest dose activity change, negative = inhibition, usual class: inhibitors | 1.2% of 300,000 active; active means well fitted inhibition curve with a large enough effect; inconclusive means small, poorly fitted or top-dose-only effect, or effect the other way; inactive means flat fitted curve, though single readings scatter; tested in HEK293 cells; note: % is set by controls: 0 for no effect and ±100 for the full control effect; nearly all actives have a fitted effect of over 50% in size; luciferase read-out
Cruzain inh Det: qHTS Assay for Promiscuous and Specific Inhibitors of Cruzain (with detergent); AID 1478, 2009; Potency, µM, inactives show max response, negative = inhibition, most hits filed as inhibitors; purified cruzain, Z-FR-AMC fluorescence, 0.01% Triton; 0.43% of 200,000 active;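 note: plate controls were neutral wells for no effect and buffer without enzyme for full effect; nearly all actives have a fitted effect of over 40% in size; top concentration of the series not given in the record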
Target sequence (P25779 123-467 limits assumed): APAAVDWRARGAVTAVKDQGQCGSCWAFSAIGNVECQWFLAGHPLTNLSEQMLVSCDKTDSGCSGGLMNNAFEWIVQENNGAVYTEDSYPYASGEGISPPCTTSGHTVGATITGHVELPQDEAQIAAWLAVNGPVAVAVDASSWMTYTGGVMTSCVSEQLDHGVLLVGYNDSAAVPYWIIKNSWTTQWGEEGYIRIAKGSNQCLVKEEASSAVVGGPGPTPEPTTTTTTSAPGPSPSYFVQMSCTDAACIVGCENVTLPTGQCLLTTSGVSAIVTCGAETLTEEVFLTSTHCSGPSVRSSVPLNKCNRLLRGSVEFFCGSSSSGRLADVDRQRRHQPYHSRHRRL
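Compounds were screened in titration against cruzain (1.5 nM) with 0.01% Triton X-100 to counter colloidal aggregation. Activity was the AMC fluorescence increase over 60 s after adding 2 uM Z-FR-AMC at pH 5.5.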
RE007 growth inh: qHTS Assay for Inhibitors of the HIV-1 protein Vpr; S. pombe RE007 Vpr strain, BacTiter-Glo ATP luminescence, 24 h; control for the full effect not named in the record; Potency, µM (top dose mostly 92.2 µM), for the others: top-dose activity change, negative = less growth; 0.21% of 360,000 active; AID 651644, 2012; active = well fitted falling curve with a large enough effect; inconclusive = small, poorly fitted or top-dose-only effect; inactive = no such curve, though single readings can be large or run the other way;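 note: % is set by controls: 0 for no effect and ±100 for the full control effect; nearly all actives have a fitted effect of over 50% in size; the assay follows cell death caused by Vpr and the record does not say whether a fall means rescue or toxicity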
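Fission yeast RE007 carrying one integrated HIV-1 vpr copy, seeded at OD 0.01 in PMG+AL medium with 23 nL pinned compound. Grown 24 h at 30 degrees; viability read by BacTiter-Glo luminescence after 5 min.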
SARS PLP yeast: qHTS of Yeast-based Assay for SARS-CoV PLP; S. cerevisiae expressing SARS-CoV PLpro, growth rescue; control for the full effect not named in the record; Potency, µM (highest dose often 32.9 µM), for inactives: at the top dose activity, positive = growth rescue; 0.19% of 330,000 active; active means well fitted rising curve with a large enough effect; inconclusive means small, poorly fitted or top-dose-only effect; inactive means no such curve, though single readings can be large or run the other way; note: 0% is about no effect; nearly all actives have a fitted effect of over 55% in size; growth read by luminescence after 48 h
Marburg entry inh: qHTS for inhibitors of binding or entry into cells for Marburg Virus | Marburg virus pseudotyped entry inhibition, cell reporter; control for the full effect not named in the record; about a third of the inactives were read at about 46 µM | 1.8% of 300,000 active | Potency, µM (doses to about 37.8 µM), for inactives: at the top dose activity change, negative = inhibition, hits mostly inhibitors; active = well fitted inhibition curve with a large enough effect; inconclusive = small, poorly fitted or top-dose-only effect, or effect the other way; inactive = flat fitted curve, though single readings scatter; tested in HEK293 cells; about a fifth of its hits are not listed in these tables; note: % is set by controls: 0 for no effect and ±100 for the full control effect; luciferase read-out
StopGo reporter: High Throughput Screening for Foot and Mouth Disease Virus Antivirals; human cells with a luciferase reporter of 2A StopGo recoding; control for the full effect not named in the record; Potency, µM (top dose mostly 57.9 µM), without a hit: at the highest dose signal change, negative = less light; 1.2% of 410,000 active; active = well fitted falling curve with a large enough effect; inconclusive = small, poorly fitted or top-dose-only effect; inactive = no such curve, though single readings can be large or run the other way; tested in HEK293T cells; note: % is set by controls: 0 for no effect and ±100 for the full control effect; nearly all actives have a fitted effect of over 45% in size; luciferase light after 4 h
Cruzain noTriton: qHTS Assay for Promiscuous and Specific Inhibitors of Cruzain (without detergent); 2.3% of 200,000 active; Cruzipain (Trypanosoma cruzi), P25779; purified cruzain, Z-FR-AMC fluorescence, no detergent; Potency, µM, for inactives: max response, negative = inhibition, most hits filed as inhibitors; AID 1476, 2009;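 note: plate controls were enzyme without inhibitor for no effect and buffer without enzyme for full effect; nearly all actives have a fitted effect of over 40% in size; top concentration of the series not given in the record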
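Detergent-free condition (0.00005% Triton X-100) in acetate buffer pH 5.5 with DTT. 1.5 nM enzyme and compound were pre-mixed 15 min, then 2 uM Z-FR-AMC substrate added; reaction progress from fluorescence change between first and third reads (60 s).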
Active calls of the source: *; u = inconclusive; x = no result given; & = joins results of further samples; [ ] = another dose, or the depositor's remark. Unless noted, calls come from the whole dose curve; as a rule, active = well fitted curve in the direction sought with a large enough effect; inconclusive = small, poorly fitted or top-dose-only effect, or another doubt; inactive = no such curve, though single readings can be large; an effect the other way counts as inactive or inconclusive. Potency is the fitted concentration of half-maximal effect.

Order of values: NS1 inh	LASV entry inh	Cruzain inh Det	RE007 growth inh	SARS PLP yeast	Marburg entry inh	StopGo reporter	Cruzain noTriton
> CCSc1nnc(NC(=O)CSc2nnc(-c3c[nH]c4ccccc34)n2CC)s1
→ 25.7%	x	-3.0%	-8.7%	14.9%	x	0.0%	0.8%
> COc1ccc(Cl)cc1NC(=O)CSc1nc(C)cc(C)n1
→ 5.3%	x	x	7.9%	0.9%	x	0.1%	x
> Cc1ccc(NC2=CC(=O)CC(C)(C)C2)cc1C
→ -1.3%	-3.1%	-5.6%	3.3%	5.8%	8.7%	-9.2%	4.2%
> CCOc1ccccc1C1CC(=O)NC(SCC(=O)Nc2nccs2)=C1C#N (stereo not given)
→ -2.7%	-19.5%	-1.5%	-15.0%	13.0%	-1.5%&-1.2%	-26.3%	1.3%
> O=C(Nc1cccc(Cl)c1Cl)C1CCN(C(=O)c2cccs2)CC1
→ 3.7%	2.5%	x	-6.4%	-0.1%	5.3%[46.1 µM]	-9.9%	x
> COc1ccccc1CNC(=O)CCCN1C(=O)COc2ccc(C)cc21
→ -27.8%	-22.1%	-0.9%	-0.2%	-4.1%	-14.6%	-13.0%	0.8%
> Cc1ccc(CSc2ncc(Cl)c(C(=O)NCCc3ccc(S(N)(=O)=O)cc3)n2)cc1
→ x	-9.6%[46.1 µM]	-5.4%	x	x	-13.5%[46.1 µM]	u	15.0%
> CCN(CC)C(=O)Cn1c(=O)nc(-c2ccccc2F)c2cc(Cl)ccc21
→ x	3.9%[46.1 µM]	-3.4%	x	x	x	1.3%	-0.5%
> O=C1C2C3C=CC([C@@H]2C(=O)N1C1CC1)[C@H]1C(=O)N(C2CC2)C(=O)C31 (stereo not given in full)
→ 13.2%	1.9%	-0.8%	1.2%	-14.8%	u	-0.6%	-2.1%
> O=C(/C=C/c1ccc(S(=O)(=O)N2CCOCC2)cc1)NCc1ccccc1
→ -0.6%	x	-3.0%	-5.6%	-1.7%	0.1%	-0.4%	-0.6%
> CCCCS(=O)CC(COc1ccc(Cl)cc1)OC(=O)c1ccccc1 (stereo not given)
→ -36.2%	9.1%	-10.6%	1.1%	-11.9%	-16.6%	13.1%	u
> COC(=O)c1cc(OC)c(OC)cc1NC(=O)c1ccc(C)cc1
→ -1.7%	-3.0%	-12.0%	0.4%	8.4%	15.7%	14.6%	u
> NC(=O)c1nsc(C(=O)N(Cc2ccco2)C(C(=O)NC2CCCC2)c2ccc(O)cc2)c1N (stereo not given)
→ 4.3%	-28.1%	x	-15.1%	14.6%	2.6%[46.1 µM]	-1.9%	x
> COc1ccc(C2C(C#N)=C(SC)NC3=C2C(=O)CC(C)(C)C3)cc1 (stereo not given)
→ -8.0%	8.1%	1.7%	22.1%	-1.7%	-8.3%	-25.6%	7.4%
> Cc1csc2nc(-c3cccc(NS(C)(=O)=O)c3)cn12
→ x	14.6%[46.1 µM]	-0.6%	x	x	x	44.8%[activator]	-6.0%
> COc1ccc(C(CNC(=O)Cc2ccccc2F)N2CCCCC2)cc1 (stereo not given)
→ 11.1%	29.7%	x	-12.9%	3.4%	-8.9%[46.1 µM]	-5.6%	x
> CCCC(=O)c1cc2c(cc1NC(=O)CC)OCCO2
→ -5.8%	x	x	-9.4%	-0.6%	x	-21.2%	x
> CCCCOC(=O)CCn1[nH]c(=O)c2ccccc2c1=O
→ -53.0%	16.8%	-3.2%	-20.2%	-5.0%	12.9%	20.6%	-5.0%
> Nc1nc(=O)n(C2CCCO2)cc1Br (stereo not given)
→ x	5.6%[46.1 µM]	x	-6.2%	x	16.1%	-15.5%	x
> COc1ccccc1CNC(=O)CN1C(=O)CSc2c1c(C)nn2-c1ccccc1
→ x	-19.1%[46.1 µM]	-1.4%	x	x	x	-22.2%	-8.4%
> CN1CCN(c2ccc(NC(=O)c3ccc(C#N)cc3F)cc2Cl)CC1
→ x	25.5%[46.1 µM]	x	-9.5%	-1.4%	u	-6.0%	x
> COc1ccc(C(C)NCCC(c2ccc(OC(C)C)cc2)c2ccccc2OC)cc1 (stereo not given)
→ -5.2%	-25.9%[46.1 µM]	x	1.3%	-1.5%	u	-24.2%	x
> O=S(=O)(c1ccc(F)cc1)N1CCN(CCOc2ccccc2)CC1
→ x	4.0%[46.1 µM]	x	-1.1%	9.9%	u	-24.9%	x
> CCc1cccc(C)c1NC(=O)CCn1nc(C)c2c(C)n(-c3ccccc3)nc2c1=O
→ x	18.8%[46.1 µM]	-3.8%	x	x	x	-3.4%	8.1%
> Cc1ccc(-c2nnc(-c3ccc(Br)cc3)o2)o1
→ 0.4%	-7.5%	6.1%	-6.9%	1.3%	u	26.8%	8.1%
> CC(C)[C@H](NC(=O)N1CC(=O)Nc2ccccc21)C(=O)Nc1nccs1
→ -2.4%	x	x	2.0%	-0.9%	x	-13.1%	x
> CCN(C(=O)c1cnc(N2CCN(c3ncccn3)CC2)c2ccccc12)c1cccc(Cl)c1
→ -63.4%	u	-14.8%	1.3%	-15.3%	u	20µM*	u
> CC(C)NC(=O)c1ccc(COCC(F)(F)F)cc1
→ -6.9%	2.8%	0.4%	11.3%	-12.9%	2.6%	-13.9%	0.3%
> COc1cc(C(=O)NC23CC4CC(CC(C4)C2)C3)cc(OC)c1OC
→ 8.3%	x	x	-16.9%	-1.6%	x	-2.8%	x
> CCc1ccccc1NC(=O)CCC(=O)OCC(=O)c1ccc(-c2ccccc2)cc1
→ u	u	-2.4%	-3.8%	4.2%	14.9%	1.4%	15.8µM*

Full records as entered above. Screens in order: NS1 inh	LASV entry inh	Cruzain inh Det	RE007 growth inh	SARS PLP yeast	Marburg entry inh	StopGo reporter	Cruzain noTriton
O=C(Nc1cccc(Cl)c1Cl)C1CCN(C(=O)c2cccs2)CC1 across the screens: 3.7%	2.5%	x	-6.4%	-0.1%	5.3%[46.1 µM]	-9.9%	x
CCc1ccccc1NC(=O)CCC(=O)OCC(=O)c1ccc(-c2ccccc2)cc1 across the screens: u	u	-2.4%	-3.8%	4.2%	14.9%	1.4%	15.8µM*

The listing continues.
Order of values: NS1 inh	LASV entry inh	Cruzain inh Det	RE007 growth inh	SARS PLP yeast	Marburg entry inh	StopGo reporter	Cruzain noTriton
> Cc1ccc(S(=O)(=O)N2CCN(C(=O)c3ccco3)CC2)cc1C
→ -7.3%	x	x	8.6%	-0.6%	x	-13.2%	x
> O=[N+]([O-])c1cc(S(=O)(=O)Nc2ccc(Cl)cc2)ccc1N/N=C/c1ccncc1
→ x	-12.6%[46.1 µM]	x	14.2%	-0.8%	u	-8.0%	x
> O=S(=O)(N/N=C/c1ccccc1OCc1ccc(Cl)cc1)c1ccccc1
→ -5.5%	-12.1%	-1.6%	9.9%	-14.8%	u	61.8%[activator]	u
> COc1ccccc1N1CCN(C(c2cc3ccc(C)cc3[nH]c2=O)c2nnnn2C2CCCC2)CC1 (stereo not given)
→ 1.7%	-8.8%	-4.7%	18.2%	-16.3%	13µM*	3.0%	u
> O=C(O)CC(Cc1ccccc1)C(=O)Nc1ccc([N+](=O)[O-])cc1 (stereo not given)
→ 12.6%	7.8%	-3.1%	-6.1%	-6.7%	0.1%	-4.8%	0.2%
> O=C1CC(Sc2ncccn2)C(=O)N1c1ccccc1C(F)(F)F (stereo not given)
→ -23.7%	u	3.4%	-6.5%	3.8%	12.7%	-6.6%	23.6%
> CCOc1ccccc1CNC(=O)CCc1cn(C)c2ccccc12
→ -3.8%	-11.0%&9.2%[46.1 µM]	0.4%	-4.0%	-0.7%	6.31µM*	-10.6%&1.5%	-9.4%
> COCCOC(=O)C1=C(C)NC(=O)NC1c1cn(-c2ccccc2)nc1-c1ccccc1 (stereo not given)
→ x	-26.4%[46.1 µM]	-4.2%	x	x	u	23.0%	1.2%
> Cc1noc(C)c1S(=O)(=O)NCCc1ccc(S(N)(=O)=O)cc1
→ 0.6%	-3.9%	0.0%	-3.2%	3.8%	-6.0%[46.1 µM]	5.8%	-7.0%
> COc1ccc(NC(=O)CN(C)S(=O)(=O)c2ccc3c(c2)NC(=O)CS3)cc1
→ 1.4%	-27.5%[46.1 µM]	x	17.6%	3.1%	7.3%[46.1 µM]	34.9%[activator]	x
> CCSc1nnc2c(n1)OC1(CCCC1)Nc1ccccc1-2
→ -24.1%	x	0.0%	9.1%	-3.8%	x	-0.9%	16.6%
> Cc1c(NC(=O)/C(=C/c2cccs2)c2cccs2)c(=O)n(-c2ccccc2)n1C
→ 11.5%	-5.2%	-8.5%	-6.4%	5.1%	9.2%	-8.3%	-23.4%
> O=C(CSC1=NC(=O)C(Cc2ccccc2)C(=O)N1)Nc1ncc(Br)cc1Br (stereo not given)
→ x	23.0%[46.1 µM]	x	1.9%	3.4%	-5.7%[46.1 µM]	-5.4%	x
> Cc1nn(C)c(C)c1CCNC(=O)Nc1ccccc1C(F)(F)F
→ x	9.8%[46.1 µM]	3.1%	x	x	x	16.2%	5.1%
> CCOC(=O)c1cnc(-n2nc(C)cc2C)nc1N(C)C
→ -67.1%	16.0%	4.0%	11.3%	-7.8%	u	0.2%	10.0%
> CN(C)C(CNC(=O)c1cc(S(=O)(=O)N(C)c2ccc(F)cc2)ccc1Cl)c1ccco1 (stereo not given)
→ x	-9.3%	x	10.5%	-8.0%	-15.6%	-7.6%	x
> CCn1cc([N+](=O)[O-])c(C(=O)N2N=C(c3ccc4ccccc4c3)CC2c2ccccc2O)n1 (stereo not given)
→ u	4.6%	-5.9%	1.1%	3.4%	u	-12.6%	15.9%
> CCCCN(C(=O)c1cc(CC)c(C)s1)c1c(N)n(CCC)c(=O)[nH]c1=O
→ x	2.0%	x	-23.5%	4.2%	-0.3%	-9.0%	x
